High-throughput results: PubChem BioAssay, Center for Chemical Genomics, University of Michigan
CDC25B CDK2 inh = human CDC25B-CDK2/CyclinA binding inhibition; HTRF CDC25B-CDK2/CyclinA binding, anti-His/anti-Flag; hits give high values; z-score (test concentration not listed); actives 0.72% (n = 94,000); AID 1259370;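 also: score is relative to mean and SD of negative controls; strong numbers were not always called active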
HIV TAR-Tat = HIV-1 TAR-Tat binding disruption; HIV-1 TAR RNA, Tat peptide displacement FRET; hits give high values; z-score (no concentration beside the values); actives 0.6% (n = 100,000); AID 1259389;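 also: score is relative to mean and SD of negative controls; some compounds called inactive have numbers as strong as hits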
* = called active by the depositor; / = not tested or not shown.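 The calls were made as follows: active = z-score from 3 up in half or more of its runs; inactive = the rest.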

canonical_smiles	CDC25B CDK2 inh	HIV TAR-Tat
O=C(NCc1cccnc1)C1CCC(Cn2c(=S)[nH]c3ccccc3c2=O)CC1 (configuration not stated)	-1.27	/
COc1cccc(-c2[nH]nc3nc(-c4ccccc4)cc(C(=O)O)c23)c1	1.22	0.26
O=C(O)CCCCc1nc2ccccc2[nH]1	/	1.03
Cc1ccc2onc(CNC(=O)Nc3ccc(C(C)C)cc3)c2c1	/	1.53
CCN(CC)CCNC(=O)C1CCN(c2nn3c(=O)c4c(nc3s2)CCCC4)CC1	/	1.59
CCc1ccc(CN2CCN(Cc3cccnc3)CC2)cc1	-1.31	0.37
CN1CCN(CCNC(=O)CN2C(=O)C3CCCCN3c3ccc(C(=O)N4CCCC4)cc32)CC1 (configuration not stated)	/	0.66
O=C(c1cnc2sccn2c1=O)N1CCCc2ccccc21	-0.29	/
CCOC(=O)c1nc(-c2ccncc2)no1	-1.27	0.25
O=C(NNC(=S)Nc1cc(Cl)ccc1Cl)C(O)(c1ccccc1)c1ccccc1	-1.52	/
Cc1ccc(-n2nc3oc4ccc5ccccc5c4cc-3c2=O)cc1C	3.82	1.17
O=C(Nc1ccc(F)cc1)C1CCCN1S(=O)(=O)c1cccc2cccnc12 (configuration not stated)	-1.43	0.11
CCOc1ccccc1Oc1coc2cc(O)ccc2c1=O	-1.25	1.79
Cc1ccc(S(=O)(=O)c2nc(-c3ccco3)oc2N2CCC(C)CC2)cc1	-1.04	2.38
COc1ccc(OC)c(C2C=C(C(=O)O)Nc3ncnn32)c1 (configuration not stated)	-0.46	1.08
O=C(CCC(=O)N1CCOc2ccc(Cl)cc21)N1CCN(c2ccccn2)CC1	-1.49	-0.76
O=C(NCCCn1ccnc1)c1sc2ccccc2c1Cl	2.69	-0.6
Cc1ccc(-n2sc(=O)n(Cc3ccc(F)cc3)c2=O)cc1	0.8	/
CC(C)CN1CC(O)=C(c2nc3ccccc3[nH]2)C1=N	-2.81	2.78
COc1ccc(CCNc2sc(S(C)(=O)=O)nc2S(=O)(=O)c2ccc(Cl)cc2)cc1	-7.97	-0.6
CC(=O)NC1=NN(C(C)=O)C(c2c(C)n(C)c(=O)n(C)c2=O)S1 (configuration not stated)	0.35	/
Cc1c(C(=O)NCCC2=CCCCC2)sc2nc3n(c(=O)c12)CCCCC3	/	0.67
CCC1CCCCN1C(=O)CSc1nc(-c2ccco2)cc(C(F)(F)F)n1 (configuration not stated)	-1.79	-0.94
Cc1oc(-c2ccccc2)nc1CSc1nc2ncccc2[nH]1	/	0.01
Cc1cc(=O)n2[nH]c(CN(c3ccccc3)S(=O)(=O)c3ccccc3)nc2n1	-0.62	0.83
Cn1c(=O)c2c(n(C)c1=O)=NC1(CCCCC1)N=2	-0.01	/
CC(C)c1ccc(C2CC(c3cccc(Br)c3)n3nnnc3N2)cc1 (configuration not stated)	/	1.19
COc1ccc(C2=NS(=O)(=O)N(C)C(C(=O)NC3CCCC3)=C2)cc1OC	-1.46	1.48
Cc1ccc2[nH]cc(C(O)CN3CCC(Cc4ccccc4)CC3)c2c1 (configuration not stated)	-0.58	0.89
Cc1ccc(S(=O)(=O)c2c[nH]c3c(F)cc(F)cc3c2=O)cc1	-1.99	/
CCOc1ccc(Oc2nc(N(C)C)nc(N3CCCC3)n2)nn1	-0.88	0.17
COC(=O)c1c(NC(=O)C2CCCCC2)sc2c1C(C(=O)OC)CC2 (configuration not stated)	-2.89	0.68
Cc1ccc(S(=O)(=O)Nc2c(-n3cnnc3)n[nH]c2C)c(C)c1	-1.87	-0.44
O=C1Nc2ccccc2S(=O)(=O)N1Cc1ccc(F)cc1	/	1.22
CCOc1ccc(OCC)c(NS(=O)(=O)c2ccc(-c3coc(C)n3)cc2)c1	/	0.11
Cc1nn(S(=O)(=O)c2ccc(Cl)cc2)c(C)c1S(=O)(=O)N1CCCC(C)C1 (configuration not stated)	/	0.04
Cc1c(C)c2cc3c(-c4ccccc4)coc3c(C)c2oc1=O	0.83	/
Cc1c(C(=O)N2CCN(CCc3ccccn3)CC2)oc2ccccc12	-1.42	1.63
Cc1ccc(OCC2SCCN2C(=O)c2c(Cl)cccc2Cl)c([N+](=O)[O-])c1 (configuration not stated)	-2.12	/
CCOC(=O)/C(C#N)=C/Nc1nnc(SCC#N)s1	-2.25	/
O=C(CC(=O)c1cccnc1)c1cccnc1	0.12	/
COc1ccc(-n2nnc(S(=O)(=O)c3ccc(C)c(C)c3)c2C)cc1Cl	-0.37	0.11
Cc1ccc2oc(=O)c3cnn(CC(=O)NC4CCCC4)c3c2c1	-1.39	-0.18
COC(=O)c1cc2c(cc1NC(=O)Cn1ncc3c1-c1ccccc1OC3)OCO2	-1.97	-0.58
CC(C)c1ccc(Nc2c(-c3ccc(N(C)C)cc3)nc3nc[nH]n23)cc1	-0.39	-2.21
NC(CO)C(=O)NNCc1ccc(O)c(O)c1O (configuration not stated)	-1.46	13.3*
O=C1Nc2ccc(S(=O)(=O)Nc3ccccc3O)c3cccc1c23	-0.82	0.31
Cn1ncc2c(NC(c3ccccc3)c3ccccc3)ncnc21	/	1.25
CCOc1c(Nc2ccc(N3CCC(C)CC3)cc2)c(=O)c1=O	/	-1.72
CC(=O)OC1COC(n2cc(C(=O)C(=O)O)c3ccccc32)C(OC(C)=O)C1OC(C)=O (configuration not stated)	-2.65	/
CCc1ccc(C2N(c3cccc(Cl)c3)C(=O)C3CCCN32)cc1 (configuration not stated)	-2.73	-2.7
C=CCN1C(=S)Nc2cccc[n+]2[B-]1(CCCC)CCCC	3.9*	/
COc1cc(CNCCSc2nnnn2C)ccc1OCc1cccc(Cl)c1	-1.1	-1.22
CC1Cc2cc(S(=O)(=O)N3CCc4ccccc43)ccc2N1C(=O)C1CC1 (configuration not stated)	/	1.12
CC(C)(C)c1ccccc1OCC(=O)Nc1ncc(S(=O)(=O)c2ccc([N+](=O)[O-])cc2)s1	0.83	/
CN(c1c(-c2ccc(Cl)cc2)c(=O)c1=O)C1CCCCC1	/	0.43
Cc1cc(C)n(C2CCS(=O)(=O)C2)n1 (configuration not stated)	-3.19	/
COCCOC(=O)c1c(C)oc2c1cc(NS(=O)(=O)c1ccc(F)cc1)c1ccccc12	-1.71	/
Cc1cc(-c2ccc(S(=O)(=O)Nc3ccccc3Cl)s2)on1	/	0.55
COc1ccc(-c2cc(C(=O)Nc3sc4c(c3C#N)CCCC4)no2)cc1OC	-1.23	/

Some values from above.
CCc1ccc(C2N(c3cccc(Cl)c3)C(=O)C3CCCN32)cc1 (configuration not stated) in CDC25B CDK2 inh reads -2.73
Cc1ccc(-n2nc3oc4ccc5ccccc5c4cc-3c2=O)cc1C in CDC25B CDK2 inh reads 3.82

Remaining list, next part.
canonical_smiles	CDC25B CDK2 inh	HIV TAR-Tat
COc1ccc(CCNc2cc(C)nc(N)n2)cc1OC	-1.19	/
Cc1ccc(Nc2nc(N3CCN(CCO)CC3)nc3c2cnn3C)cc1C	/	1.74
Cn1c(=O)[nH]c(=O)c2c1ncn2CCN	-1.4	/
O=C(Cn1c(=O)oc2ccccc21)N1CCN(c2ncccn2)CC1	/	0.94
CCc1ccc(Nc2c(-c3ccc(C)cc3)c(=O)c2=O)cc1	/	1.25
Cc1nnc2c(Oc3ccc(Cl)cc3)nc3ccccc3n12	15.7*	0.92
C=CCn1c(CCNC(=O)CCCO)nc2ccccc21	-0.29	-0.44
Cc1cc(C)cc(NS(=O)(=O)c2ccc3c(c2)N(C)CCO3)c1	/	1.43
O=C1C(c2cc3ccccc3cn2)=C(O)c2ccccc21	3.46	-6.72
O=C(O)CCCCC1SCC2NC(=O)NC21 (configuration not stated)	/	1.22
O=c1c(-c2ccc(Cl)cc2)c(N2CC=C(c3ccccc3)CC2)c1=O	/	-0.18
O=C(C1CCN(c2ccc(F)cc2)C1=O)N1CCCC1 (configuration not stated)	/	0.88
Cc1ccc(NS(=O)(=O)c2ccc3oc(=O)c4ncn(C)c4c3c2)c(C)c1	/	0.58
COc1ccc(COC(=O)C2=C(C)NC3=C(C(=O)CC(C)(C)C3)C2c2ccncc2)cc1 (configuration not stated)	-0.58	-1.59
COC(=O)CC(C(=O)OC)P(=O)(O)CN(C)S(C)(=O)=O (configuration not stated)	4.5*	/
CN(CCCNc1nn2nnnc2c2ccccc12)Cc1ccccc1	-1.74	0.76
CCOC(=O)C1=C(C)Nc2nc3ccccc3n2C1c1ccc(CC)cc1 (configuration not stated)	-0.1	0.95
O=C(NCCN1CCOCC1)c1nnc(-c2ccncc2)o1	-1.25	1.01
COc1ccc(CN2CCN(Cc3cc(Br)ccc3O)CC2)c(OC)c1	0.15	1.14
Cc1cc([N+](=O)[O-])nn1Cc1ccc(C(=O)O)cc1	0.18	0.63
Cn1cccc1Cc1nnc(SCC(=O)NC2CCCCC2)n1-c1ccc(F)cc1	-1.16	/
Cc1ccn2c(=O)c(NC(=O)c3ccc(C)c(C)c3)c(C)nc2c1	/	1.59
Cc1ccc2[nH]c3nc(N=Nc4c(O)[nH]c5c(Br)cc(Br)cc45)nnc3c2c1	-2.46	/
O=C(c1noc2c1CCCCC2)N(Cc1ccco1)C1CCCC1	/	0.53
Cc1cc2nc(-c3cc(NC(=O)Cc4ccccc4)ccc3O)oc2cc1C	-0.27	/
CCCN(CCC)C(=O)CN1C(=O)N(c2ccc(OCC)cc2)C2CS(=O)(=O)CC21 (configuration not stated)	-2.11	0.53
Cc1ccc(-c2c(C)noc2C)cc1S(=O)(=O)N1CCN(c2ccc(F)cc2)CC1	/	0.38
CCCN(c1ccccc1F)S(=O)(=O)c1ccc2c(c1)C(C)(C)C(=O)N2C	/	0.82
N#Cc1ccc(NC(=O)COCC(=O)O)cc1	-0.72	/
N#CC1=C(SCc2ccccc2)NC(=O)CC1c1ccc(O)cc1 (configuration not stated)	-2.53	0.65

Already shown: an excerpt of the list.
canonical_smiles	CDC25B CDK2 inh	HIV TAR-Tat
O=C(c1noc2c1CCCCC2)N(Cc1ccco1)C1CCCC1	/	0.53
Cc1cc2nc(-c3cc(NC(=O)Cc4ccccc4)ccc3O)oc2cc1C	-0.27	/
CCCN(CCC)C(=O)CN1C(=O)N(c2ccc(OCC)cc2)C2CS(=O)(=O)CC21 (configuration not stated)	-2.11	0.53
Cc1ccc(-c2c(C)noc2C)cc1S(=O)(=O)N1CCN(c2ccc(F)cc2)CC1	/	0.38
CCCN(c1ccccc1F)S(=O)(=O)c1ccc2c(c1)C(C)(C)C(=O)N2C	/	0.82
N#Cc1ccc(NC(=O)COCC(=O)O)cc1	-0.72	/
N#CC1=C(SCc2ccccc2)NC(=O)CC1c1ccc(O)cc1 (configuration not stated)	-2.53	0.65

Continuation:
canonical_smiles	CDC25B CDK2 inh	HIV TAR-Tat
CC(=O)Nc1c(-c2ccccc2)oc2ccccc2c1=O	-2.66	/
CN(C)NC(=O)c1ccc([N+](=O)[O-])s1	-0.56	/
O=C(C1=C(O)C(=O)N(Cc2cccnc2)C1c1ccccc1F)c1cccs1 (configuration not stated)	-0.29	0.94
CCOC(=O)CSc1nnc(CSc2nc(N)c3c(C)c(C)sc3n2)n1-c1ccccc1	-1.25	/
CC(C)CC(NS(=O)(=O)c1ccc2[nH]c(=O)ccc2c1)C(=O)N1CCOCC1 (configuration not stated)	/	1.45
COC(=O)c1sc2ccccc2c1S(=O)(=O)N1CCCc2ccccc21	/	-1.94
CCC(C)NC(=O)C1C2C=CC3(CN(Cc4cccs4)C(=O)C13)O2 (configuration not stated)	-1.13	2.81
Cc1oc(-c2ccc(Cl)cc2)nc1Cn1nc(C)c2c(C)onc2c1=O	/	-1.73
CC1CC(C)CN(S(=O)(=O)N2CCCC(C(=O)NCCN(C)C)C2)C1 (configuration not stated)	/	0.59
Cc1ccc(N2N=C(C(=O)OC(C)(C)C)S(=O)(=O)c3cc(F)ccc32)cc1	-0.4	2.09
CC(C)C(N)C(=O)NC(C(=O)O)C(C)C (configuration not stated)	/	2
C=CCN1C(=O)/C(=C\c2ccccc2OS(=O)(=O)c2ccccc2[N+](=O)[O-])SC1=S	-0.42	/
CN(C)C(=O)C(=O)c1c(-c2ccccc2)cc2ccccn12	-1.09	0.44
Cc1onc(-c2ccccc2Cl)c1C(=O)Nc1ccc(S(=O)(=O)Nc2nccs2)cc1	-1.34	/
Cc1ccc(S(=O)(=O)c2nnn3c2nc(NCc2ccco2)c2sccc23)cc1C	/	0.35
Cc1cc([N+](=O)[O-])nn1CC(=O)NCC(C)C	-0.65	-0.14
NS(=O)(=O)c1ccc(N2C(=O)C=CC2=O)cc1	-0.62	/
C=CCc1c(C)nc(SC)nc1Nc1ccc(C)cc1	-0.29	1.52
Nc1nc(-c2ccc3ccccc3c2)cs1	-1	0.42
Cc1nn(CCCC(=O)N(C)Cc2ccccc2)c(=O)c2cc3sccc3n12	-1.31	-1.26
CN1C(=O)C(C)(C)c2cc(S(=O)(=O)N3CCCC(C(=O)N4CCc5ccccc5C4)C3)ccc21 (configuration not stated)	/	1.15
COC(=O)C1=CO[C@@H](C)[C@@H]2CN3CCc4c([nH]c5ccccc45)[C@@H]3C[C@H]12	/	-1.05
CCOC(=O)c1sc2ccccc2c1N	-2.7	/
C/C(=N\N=C(/C)c1ccccc1)c1ccccc1	-1.34	/
O=C(Nc1ccc(Br)cc1)C1CCN(S(=O)(=O)c2cccc3nsnc23)CC1	/	-0.33
CC1=C(C(=O)OCCOC(C)C)C(c2coc3ccc(C)cc3c2=O)C2=C(CCCC2=O)N1 (configuration not stated)	-1.94	-0.93
O=C(Nc1ccc(Cl)c(-c2nc3ncccc3o2)c1)c1sc2ccccc2c1Cl	1.25	/
CN1C(=O)c2cc(C(=O)NCc3ccco3)nn2CC1(C)C(=O)NC1CCCC1 (configuration not stated)	/	-0.49
